gsp antagonist: gsp mutant antagonism. AID 624288. gsp-mutant cells, cAMP HTRF, 30 min; control for the full effect not named in the record. Potency, µM (top dose mostly 76.9 µM), for the others: at the top dose activity change, negative = inhibition, most hits filed as inhibitors. hit rate 0.4% among 340,000; active = falling curve of any shape with a large fitted effect; inconclusive = falling curve, mostly with a smaller effect; inactive = flat or rising curve; cell line not stated here;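 further: intracellular cAMP measured with PDE inhibitor Ro 20-1724 present during compound exposure; potency means the concentration at half of the fitted maximal effect; on the % scale 0 is the no-effect control and ±100 the full control effect; nearly all actives have a fitted effect of over 65% in size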
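Cells in G418 medium, seeded 16-24 h, 37C; buffer exchange to DPBS + 1 mM CaCl2, 0.5 mM MgCl2, 0.05% BSA; cpds in DMSO + […] (300 uM stock), 30 min 37C; HTRF cAMP detection.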
CtBP-E1A blk: blocks the CtBP interaction with E1A | hit rate 0.49% among 340,000 | AlphaScreen GST-E1A/His-CtBP binding, 1536-well; hits give low values; control for the full effect not named in the record | activity change, % (no concentration beside the values); in the data active means activity change below about -65%; inconclusive means about -30% to -65%; inactive means above about -30%; further: on the % scale 0 is the no-effect control and ±100 the full control effect; compound concentration not given in the record
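GST-E1A and His-tagged CtBP (125 nM each as 5X stock) were preincubated with pin-transferred compound for 2 h at 37 °C in the dark, then glutathione donor and nickel acceptor beads were added for 1 h before AlphaScreen reading.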
D2 ag: activates the human D2 dopamine receptor; P14416; DiscoveRx PathHunter D2 beta-arrestin, luminescence, 90 min; 100% = 57 uM dopamine signal; activation, % (test concentration not listed); hit rate 0.084% among 360,000; AID 624465; in the data active = activation above about 40%; inconclusive = about 15% to 40%; inactive = below about 15%; further: compound concentration not given in the record; the text of the record calls up to 30% inactive
Target sequence (P14416 whole entry, looked up): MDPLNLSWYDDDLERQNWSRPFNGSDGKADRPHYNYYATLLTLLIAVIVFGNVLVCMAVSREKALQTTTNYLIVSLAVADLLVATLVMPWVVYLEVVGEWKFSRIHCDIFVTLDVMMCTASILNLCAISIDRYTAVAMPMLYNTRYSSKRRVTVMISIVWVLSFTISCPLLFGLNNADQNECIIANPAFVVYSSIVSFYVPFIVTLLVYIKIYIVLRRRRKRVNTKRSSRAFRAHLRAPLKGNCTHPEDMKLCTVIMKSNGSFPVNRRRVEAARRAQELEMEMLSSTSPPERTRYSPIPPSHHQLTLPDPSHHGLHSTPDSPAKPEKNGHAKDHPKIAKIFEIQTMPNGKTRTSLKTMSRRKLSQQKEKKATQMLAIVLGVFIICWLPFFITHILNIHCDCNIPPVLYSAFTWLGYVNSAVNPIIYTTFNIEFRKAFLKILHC
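Agonist mode: compounds alone added to overnight-plated D2 PathHunter cells for 90 min at 37 C, with 57 uM final dopamine (EC100) defining full response. Beta-arrestin recruitment detected by chemiluminescent reagent, read after 1 h at ambient temperature.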
Six1-Eya2 inh: Six1/Eya2 interaction inhibition; Q15475+O00167; activity change, % (test concentration not listed); AlphaScreen GST-Six1/His-Eya2 binding, biochemical; hits give low values; control for the full effect not named in the record; hit rate 0.56% among 360,000; AID 651725; in the data active = activity change below about -65%; inconclusive = about -30% to -65%; inactive = above about -30%; further: on the % scale 0 is the no-effect control and ±100 the full control effect; compound concentration not given in the record
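Homogeneous AlphaScreen proximity assay pairing GST-Six1 with His-tagged Eya2 (added as 5X mix: 250 nM and 500 nM) in 50 mM Tris pH 8.0, 300 mM NaCl, 1 mM TCEP. Glutathione donor and nickel acceptor beads; 1 h, 37 °C, dark.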
gsp agonist: activates gsp, the McCune-Albright syndrome mutation; hit rate 0.13% among 340,000; gsp mutant cells, cAMP HTRF, 30 min; control for the full effect not named in the record; AID 624287; Potency, µM (top dose mostly 76.9 µM), inactives show at the highest dose activation (cAMP increase), hits mostly activators; active = well fitted activation curve with a large enough effect; inconclusive = small, poorly fitted or top-dose-only effect, or another doubt; inactive = no such curve, though single readings can be large or run the other way; cell line not stated here;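 further: phosphodiesterase inhibitor Ro 20-1724 added with compounds to block cAMP breakdown; potency means the concentration at half of the fitted maximal effect; nearly all actives have a fitted effect of over 60% in size; about a fifth of the inactives were tested at one dose only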
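Cells stably selected in G418 were plated at 2000/well, grown 16-24 hr, then given compounds in DMSO with the PDE inhibitor […] (300 uM solution added) for 30 min at 37C; cAMP was read by HTRF.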
D2 potentiator: positive allosteric modulators of human D2 dopamine receptor | hit rate 0.23% among 360,000 | DiscoveRx D2 beta-arrestin cells, luminescence, 90 min; 100% = 57 uM dopamine signal | potentiation, % (no concentration beside the values) | AID 624464 | P14416; active = potentiation of 50% or more; inconclusive = 30% to 50%; inactive = 30% or less;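 further: compound concentration not given in the record; tested on top of an EC20 dose of dopamine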
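PathHunter beta-arrestin assay in DiscoveRx D2 cells. Compounds were added with an EC20 of dopamine (50 nM final) for 90 min at 37 deg C. Luminescence was read 1 h after detection reagent, with 57 uM dopamine as the EC100 control.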
Active calls of the source: *; u = inconclusive; x = no result given; [ ] = another dose, or the depositor's remark.

no.	SMILES	gsp antagonist	CtBP-E1A blk	D2 ag	Six1-Eya2 inh	gsp agonist	D2 potentiator
1	COc1ccc(Nc2nc(C)nc3c2nnn3Cc2ccccc2)cc1OC	-4%	-19	2.1	-21	u	-1
2	COc1cccc(CN2CCC2(C)C(=O)Nc2ccc(C)cc2)c1F (stereo not drawn)	x	-4	-2.4	-3	x	-2
3	CC(C)CC1(C)NC(=O)NC1=O (stereo not drawn)	1%	-5	-5.4	-2	5%	-14
4	Cc1ccc2nc(NC(=O)C3CCN(c4ncnc5sc(C)c(C)c45)CC3)sc2c1	9%	-3	-8.2	8	u	6
5	COc1ccc2c(c1OC)C(=O)N1C2SC(C)(C)[C@H]1C(=O)NC1CC1 (stereo partly drawn)	4%	3	7.5	3	x	-12
6	CCCCNS(=O)(=O)/C=C/c1ccccc1	8%	5	-0.8	2	-71%[inhibitor]	8
7	CC12CNCC(C)(CN(C(c3ccccc3)c3ccccc3)C1)C2	3%	-8	-2.8	4	2%	-39
8	Oc1ccc[n+](CCCCC[n+]2cccc(O)c2)c1	4%	x	-5.2	3	-18%	-12
9	CC1(C)Cc2cccc(OCC(O)CN3CCN(c4ccccn4)CC3)c2O1 (stereo not drawn)	-1%	5	u	4	3%	-4
10	CC1(C)Cc2ccccc2-c2nc(NCCO)n(-c3ccccc3)c(=O)c21	-7%	-1	-4.4	-11	10%	-7
11	COc1ccccc1CNC(=O)c1sccc1C	2%	-1	-2.9	-2	3%[15.4 µM]	-5
12	COc1ccc(N(CC(=O)N2CCN(c3cccc(Cl)c3)CC2)S(=O)(=O)c2c(C)noc2C)cc1	-11%	-9	2.0	-15	u	-3
13	O=C(COc1ccc2c3c(c(=O)oc2c1)CCC3)N1CCN(c2ccccc2)CC1	u	-18	1.2	-13	-3%	-4
14	CC(C)NC(=O)CSc1nc(N)c(NC(=O)c2ccco2)c(=O)[nH]1	4%	-1	-2.8	8	11%[15.4 µM]	-4
15	CCc1cc(-c2[nH]ncc2-c2ccc(OC)cc2)c(O)cc1O	5%	3	0.7	-23	-17%[15.4 µM]	4
16	Cc1ccccc1N1CC(C(=O)N2CCc3ccccc32)CC1=O (stereo not drawn)	3%	-5	-6.7	1	8%	-11
17	Cc1ccc(C(=O)CCC(=O)NC2CCCC(C)C2C)cc1 (stereo not drawn)	5%	9	-0.9	2	u	-1
18	N#Cc1ccsc1NC(=O)CN1CCN(c2ccc(O)cc2)CC1	-5%	0	12	-17	-1%	u
19	CN1CC(=O)N(CCOc2ccccc2)C1=O	3%	2	-6.0	2	-13%	3
20	CC(C(=O)Nc1ccccc1C(=O)N1CCOCC1)N(c1ccccc1)S(C)(=O)=O (stereo not drawn)	6%	0	-1.6	4	4%	-18
21	CCCCOc1ccc(C(=O)NCC(=O)N2CC(C)OC(C)C2)cc1 (stereo not drawn)	2%	3	-3.7	2	4%[15.4 µM]	3
22	COc1ccc(-c2nc(N)n[nH]2)cc1OC	7%	0	2.1	1	u	9
23	CCN(CC)S(=O)(=O)c1ccc(N2CCCC2)c(NS(=O)(=O)c2ccccc2)c1	1%	-8	-3.8	-3	5%	-36
24	COc1ccc(C(CCNCc2ccc(N(C)C)cc2)c2ccccc2OC)cc1 (stereo not drawn)	9%	-75*	-3.4	-74*	-1%[15.4 µM]	-14
25	CCC1(C)Cc2ccccc2-c2c1c(=O)n(-c1ccc(C)cc1)c1nnnn21 (stereo not drawn)	3%	x	-0.2	-2	13%	7
26	CCN(CC)C(=O)c1c(Cl)nc(C)c([N+](=O)[O-])c1C	18%	u	-5.5	9	-2%[15.4 µM]	-8
27	CCOC(=O)N1CCC(NCc2c(C(=O)N(C)Cc3ccccc3)nc3ccccn23)CC1	-2%	0	-2.1	5	-16%	-4
28	C=CCN(CC=C)C(=S)Nc1ccc2nsnc2c1	-8%	x	-6.9	12	2%	8
29	O=C(CCN1CCCCCC1)Nc1ccc(F)cc1	1%	-19	-1.8	-9	-5%	-21
30	CCOc1ccc(CC(=O)N2CCC3(CC2)NCCc2[nH]cnc23)cc1	2%	x	3.0	4	-20%	-2
31	Cc1cccc(N2CC(C(=O)NCCC3=CCCCC3)CC2=O)c1C (stereo not drawn)	9%	-12	-2.9	4	-6%[15.4 µM]	-8
32	N#C/C(=C\c1ccccc1OCC(=O)O)c1nc2ccccc2[nH]1	-22%	1	-2.6	-6	31%	-6
33	Cc1nn(C(C)C(=O)NCc2cccs2)c(=O)c2nn(-c3ccccc3)c(C)c12 (stereo not drawn)	0%	x	-7.0	3	2%	-11
34	Cc1ccc(OCC(=O)N2CCOCC2)cc1C	-8%	9	-0.9	6	u	5
35	COc1ccc(S(=O)(=O)N2CCc3ccccc32)cc1C(=O)OCc1c(C)noc1C	4%	3	0.3	-4	-55%[inhibitor]	-18
36	O=C(CNC(=O)C1COc2ccccc2O1)N/N=C/c1ccc([N+](=O)[O-])cc1 (stereo not drawn)	-1%	12	2.2	-1	-7%[15.4 µM]	u
37	COc1cccc(-c2nnc(NC(=O)c3ccc4ncsc4c3)o2)c1	-7%	-16	-0.4	-30	3%	-6
38	COc1nc(Nc2cccc([N+](=O)[O-])c2)nc(OC)n1	5%	-3	5.1	-12	u	-12
39	CCOC(=O)c1c(NC(=O)CSc2nnc(-c3ccccc3)n2CC)sc(C(C)=O)c1C	u	-17	1.6	-13	7%	-1
40	Cc1ccc(S(=O)(=O)NCCC(=O)N2CCN(Cc3ccccc3)CC2)cc1	-4%	-2	4.2	2	-15%	-5

Some of the entries so far, with values under each structure.
Order of results: gsp antagonist	CtBP-E1A blk	D2 ag	Six1-Eya2 inh	gsp agonist	D2 potentiator
[15] CCc1cc(-c2[nH]ncc2-c2ccc(OC)cc2)c(O)cc1O
 : 5%	3	0.7	-23	-17%[15.4 µM]	4
[16] Cc1ccccc1N1CC(C(=O)N2CCc3ccccc32)CC1=O (stereo not drawn)
 : 3%	-5	-6.7	1	8%	-11
[17] Cc1ccc(C(=O)CCC(=O)NC2CCCC(C)C2C)cc1 (stereo not drawn)
 : 5%	9	-0.9	2	u	-1

Next part
no.	SMILES	gsp antagonist	CtBP-E1A blk	D2 ag	Six1-Eya2 inh	gsp agonist	D2 potentiator
41	CCN(CC)C(=O)COc1coc(CN2CCN(Cc3ccccc3)CC2)cc1=O	6%	x	2.1	1	3%	-1
42	O=C(O)c1cccc(Cn2cccn2)c1	3%	-1	-2.8	4	-48%[inhibitor]	-3
43	COCCCNC(=O)CN(c1cc(Cl)ccc1OC)S(C)(=O)=O	-10%	2	-1.0	-1	1%[15.4 µM]	-4
44	Cc1ccc(N2CC(C(=O)Nc3nnc(SCC(=O)Nc4nc(C)cs4)s3)CC2=O)cc1 (stereo not drawn)	-1%	-14	-4.0	2	-16%	0
45	COc1ccc(CCC(=O)OCC(=O)Nc2ccccc2OC(F)F)cc1OC	x	-14	-0.8	-2	-2%[15.4 µM]	-14
46	COc1ccc(C(=O)NCCN2CCOCC2)c(OC)c1OC	-15%	-3	-3.5	-4	11%[15.4 µM]	-4
47	COc1ccccc1Nc1ncc(C(=O)Nc2ccc(OC)c(OC)c2)c2ccccc12	-1%	-20	0.2	10	-3%	-1
48	COc1ccc(OC)c(CN2CCN(C(=O)c3cccc(S(=O)(=O)Nc4ccccc4OC)c3)CC2)c1	-15%	-10	-3.0	-12	u	-23
49	O=C(COC(=O)COc1ccccc1)NCc1ccc2c(c1)OCO2	-2%	6	-5.3	-1	-11%	-20
50	Cc1nc(SCC(=O)NCCc2ccccc2)c2oc3ccccc3c2n1	11%	-11	1.2	0	-14%	-12
51	CCOC(=O)C1(CC2CC2)CCN(Cc2cn[nH]c2-c2ccccc2)CC1	7%	-4	3.0	2	-3%	-23
52	CC(=O)c1ccc(S(=O)(=O)N2CCCC(N(C)CCc3ccccn3)C2)cc1 (stereo not drawn)	-4%	x	-4.4	1	17%	-16
53	CCCCN(CC)C(=S)Nc1ccc2nc3n(c(=O)c2c1)CCCCC3	-18%	12	-0.9	-2	-47%[inhibitor]	-8
54	COc1cccc(N2CCN(C(c3ccccn3)c3nnnn3C(C)(C)C)CC2)c1 (stereo not drawn)	7%	-3	1.6	-2	-25%	2
55	O=C(O)CCC(=O)Nc1ccccc1C(=O)Nc1ccccc1	8%	-10	-0.3	3	-26%	0
56	CC(=O)N1c2ccc(S(=O)(=O)N3CCCCC3)cc2CC1C(=O)Nc1ccc(F)cc1C (stereo not drawn)	u	0	-5.0	-3	13%	-7
57	CCN(C(=O)Cc1ccccc1OC)c1nnc(-c2ccncc2)s1	-12%	11	0.9	-2	0%	-4
58	N#CCCN(C(=O)COC(=O)C1=COCCO1)c1ccc(F)cc1	6%	1	-1.1	3	8%	2
59	CCn1c(SCC(=O)OC)nnc1-c1ccncc1	-2%	2	-3.9	-6	18%	18
60	CCOC(=O)c1ccccc1NC(=O)CSc1nncn1C	-18%	-2	-2.0	3	16%[15.4 µM]	-5
61	Cc1cc(C)c(S(=O)(=O)NCc2nc3nc(C)cc(C)n3n2)c(C)c1	7%	0	0.8	0	-57%[inhibitor]	-2
62	Cc1ccccc1NC(=O)CSCCO	8%	-1	0.9	5	-45%[inhibitor]	-2
63	COC(=O)c1cccc(NC(=O)Cn2cnc3c2c(=O)n(C)c(=O)n3C)c1	17%	12	-0.5	2	u	1
64	CC(C)OCCCNC(=O)C1CCC(CNS(=O)(=O)c2ccccc2)CC1 (stereo not drawn)	5%	13	-3.2	-14	-1%[15.4 µM]	-2
65	Cc1ccccc1NC(=O)CSCC(=O)Nc1ccccc1C	11%	6	1.5	0	-30%[inhibitor]	-3
66	O=S(=O)(N/N=C\c1ccc2c(c1)OCO2)c1ccccc1	11%	8	-2.9	-8	u	-14
67	COc1cccc([C@@H]2Oc3ccc(OC)cc3C(=O)[C@H]2OC(=O)Nc2cc(OC)c(OC)c(OC)c2)c1	-13%	-15	-7.5	-7	8%	-5
68	COc1ccc(NS(=O)(=O)Cc2ccccc2)cc1OC	-4%	1	1.9	-4	5%	-9

Assay outcomes: PubChem BioAssay, National Center for Advancing Translational Sciences (NCATS)
